Source: PubChem
UCH37 DUB inh – human UCH37 deubiquitinating enzyme inhibition; Q9Y5K5; purified proteasome/UCH37, Ub-AMC cleavage fluorescence; inhibition, % (no concentration beside the values); 330,000 tested, 0.33% active; AID 588478;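 active means mean of two replicates above 20%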;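 further: 0% = compound-free wells with enzyme and 100% = wells lacking proteasome; stock transfer was 100 nL into about 20 µL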
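Material: human UCH37 enzyme supplied as purified proteasome complex. Measure: % inhibition of Ub-AMC cleavage fluorescence. Medium: pH 7.4 Tris-HCl (50 mM) with ovalbumin, ATP-MgCl2, DTT. Times: 30 min preincubation with enzyme, 25 min cleavage at room temperature. Detection: AMC fluorescence intensity at 355/460 nm.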
Beta2AR agonist – activates human beta-2 adrenergic receptor causing internalization | P07550 | Am2.2-beta2AR cells, FAP receptor internalization, flow cytometry; reference of the scale not given here | response, % (test concentration not listed) | 340,000 tested, 0.43% active | AID 504454;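 active means response above a set limit, near 3 SD of response in nonfluorescent compounds, cut at about 42% in these data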;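 further: stock transfer was 100 nL into about 11 µL; a reference agonist was the positive control; negative values mostly stem from fluorescent compounds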
ALR H2O2 inh – blocks human ALR sulfhydryl oxidase activity; 290,000 tested, 3.8% active; inhibition, % (concentration not given with the values); purified ALR, DTT oxidation, H2O2 HRP-luminol luminescence; P55789;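 active means mean and each replicate at 75% or more; inconclusive means only one of the two met; inactive means neither met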;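 further: stock transfer was 7.5 nL into about 7.5 µL; 0% = neutral wells and 100% = wells with inactivated enzyme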
Target sequence (P55789 whole entry, looked up): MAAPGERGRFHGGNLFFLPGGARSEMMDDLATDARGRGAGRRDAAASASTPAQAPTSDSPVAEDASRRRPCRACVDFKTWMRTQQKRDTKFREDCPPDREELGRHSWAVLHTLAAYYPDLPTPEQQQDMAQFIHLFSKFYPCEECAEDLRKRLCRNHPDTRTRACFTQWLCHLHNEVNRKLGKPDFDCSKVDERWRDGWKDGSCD
rRNA inh HTS – inhibitors of bacterial rRNA selective over humanized ribosomes; AID 720706; GFP signal change (wild-type ribosome), % (no concentration beside the values); 350,000 tested, 1.6% active; E. coli WT GFP vs humanized-ribosome RFP mutants, fluorescence, 24 h; active compounds read low; DMSO median 0, no signal -100;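 active means significant combined selectivity score with lowered wild-type GFP, culture density cut under 30%, mutant RFP and density less affected; inactive means any of these conditions unmet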; further: one replicate is shown; some compounds called inactive have numbers as strong as hits
FGF22 binding – FGF22 (human) thermal shift binding; Q9HCT0; recombinant FGF22 thermal shift, SYPRO orange fluorescence; percent of sucrose octasulfate shift, DMSO zero; calls only at 9.99 µM; 340,000 tested, 1.5% active; AID 651658;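 active means melting point raised past a set limit in the mean and every replicate; inconclusive means no clear call; three in four hits are not shown here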
Target sequence (Q9HCT0 whole entry, looked up): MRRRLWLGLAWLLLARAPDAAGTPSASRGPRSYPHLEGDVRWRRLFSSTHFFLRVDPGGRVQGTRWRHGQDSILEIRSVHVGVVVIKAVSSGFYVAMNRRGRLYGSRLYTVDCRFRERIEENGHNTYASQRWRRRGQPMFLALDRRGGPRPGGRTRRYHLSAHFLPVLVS
E coli growth – inhibitors of Escherichia coli growth; OD600, 23 h; active compounds read low; OD600 absorbance (test concentration not listed); 330,000 tested, 0.21% active; AID 1053175;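 active means OD600 absorbance below the run mean of sample wells minus 3.6 SD, in any replicate, cut at about 0.56 in these data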;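 further: stock transfer was 300 nL into about 60 µL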
HNF4A DNA FP – change in binding of human HNF4 alpha to DNA; P41235; HNF4a-FITC DNA binding, fluorescence polarization, 1 h; activity change, % at 10 µM; 360,000 tested, 0.3% active; AID 1224865; in the data active means activity change above about 30%, passing the limit was not always enough;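 further: controls were the assay level and a saturating level of protein; the project sought stronger binding though the title names inhibitors; some compounds called inactive have numbers as strong as hits; positive values seem to mean higher polarization but the record does not say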
Target sequence (P41235 whole entry, looked up): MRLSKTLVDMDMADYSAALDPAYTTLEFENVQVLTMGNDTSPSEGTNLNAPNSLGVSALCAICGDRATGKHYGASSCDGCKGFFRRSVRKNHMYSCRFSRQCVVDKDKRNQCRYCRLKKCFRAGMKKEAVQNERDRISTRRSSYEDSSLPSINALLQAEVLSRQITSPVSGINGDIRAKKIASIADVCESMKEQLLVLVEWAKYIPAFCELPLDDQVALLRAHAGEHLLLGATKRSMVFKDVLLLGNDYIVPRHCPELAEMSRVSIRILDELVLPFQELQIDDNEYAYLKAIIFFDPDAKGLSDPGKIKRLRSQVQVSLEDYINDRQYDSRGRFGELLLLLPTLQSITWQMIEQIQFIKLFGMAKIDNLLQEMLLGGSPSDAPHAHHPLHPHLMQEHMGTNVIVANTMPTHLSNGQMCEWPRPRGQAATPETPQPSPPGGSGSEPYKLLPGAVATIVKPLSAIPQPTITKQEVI
rRNA inh HTS OD600 – second read-out of rRNA inh HTS, no call of its own (marks repeat the call); OD600 change, %; measured here: OD600 growth;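 optical density of the mix in the first replicate; 0 = DMSO median and -100 = no signal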
rRNA inh HTS RFP – recorded beside rRNA inh HTS, whose call it bears; RFP signal change, %; measured here: RFP humanized mutant strains;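 first replicate; 0 = DMSO median and -100 = no signal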
Active calls of the source: *; i = inactive; ? = inconclusive; nt = not tested or not shown. Some of the compounds tested; the hit share may differ from the screen's.

UCH37 DUB inh	Beta2AR agonist	ALR H2O2 inh	rRNA inh HTS	rRNA inh HTS OD600	rRNA inh HTS RFP	FGF22 binding	E coli growth	HNF4A DNA FP	SMILES
0.9	-6.5	15.4	10.1	13.8	0.1	i	0.608	0.0	Cc1ccc(NC(=O)COC(=O)c2ccco2)cc1S(=O)(=O)N1CCOCC1
7.2	1.9	nt	nt	nt	nt	nt	0.675	-0.7	COc1ccc(C(=O)CSc2nc3ccc([N+](=O)[O-])cc3[nH]2)cc1
0.4	-3.0	4.5	8.6	1.6	-0.3	i	0.705	-2.7	O=C(Nc1cccc(F)c1)NC1(C(=O)N2CCOCC2)CCCCC1
1.7	-16.8	-6.3	nt	nt	nt	nt	0.7	4.1	O=C(Cn1nnc(-c2ccc(CN3CCOCC3)cc2)n1)NC1CCCCC1
4.2	-16.5	?	-2.0	-4.9	0.8	i	0.675	-4.0	N#CC(c1ccncc1)(c1ncc(C(F)(F)F)cc1Cl)N1CCOCC1 (stereo unspecified)
1.3	-7.7	nt	-21.8	-19.5	-0.7	i	0.663	3.4	O=C(CCCCCCCC(=O)N1CCCCCC1)N1CCCCCC1
3.8	5.5	-4.4	nt	nt	nt	nt	0.712	22.9	CC(OC(=O)CNC(=O)C12CC3CC(CC(C3)C1)C2)C(=O)Nc1ccc(N2CCOCC2)cc1 (stereo unspecified)
1.6	-0.1	0.7	3.1	-4.1	0.6	i	0.686	0.2	COC(=O)c1ccccc1NC(=O)c1cnn2cccnc12
1.6	3.4	3.6	6.3	3.2	-1.8	i	nt	-2.8	CCN1C(=O)[C@H]2[C@@H](c3ccc(SC4CCCCC4)c(OC)c3)N3CCCC[C@@]3(C(=O)OC)[C@H]2C1=O
2.5	-2.4	-3.9	7.5	10.2	-2.5	i	0.698	0.7	O=C(OCC(=O)N1CCc2ccccc21)c1ccc([N+](=O)[O-])cc1
1.2	1.0	-3.6	-8.7	-13.1	2.0	i	0.673	-1.0	CCN(CC(=O)Nc1c(F)cccc1F)C(=O)c1cccc(S(=O)(=O)N2CCc3ccccc3C2)c1
4.3	-4.0	-1.3	nt	nt	nt	nt	0.746	14.3	O=C1CC(N2CCN(c3ccc(S(=O)(=O)N4CCCC4)cc3)CC2)C(=O)N1c1ccc(F)cc1 (stereo unspecified)
-4.9	2.4	-2.3	8.9	10.2	2.3	i	0.681	-4.9	CC1(C)CC(=O)C2=C(C1)Nc1ccccc1N(C(=O)C1CC1)C2c1ccco1 (stereo unspecified)
nt	nt	nt	-2.9	-17.9	1.3	i	nt	0.5	COc1cccc(CNC(=S)Nc2ccc3c(c2)c(=O)n(C)n3Cc2ccc(F)cc2)c1
-0.5	-5.3	11.7	nt	nt	nt	nt	0.704	0.3	CN1CCC(=NNC(=O)CSCc2ccccc2)CC1
2.2	2.7	-5.9	nt	nt	nt	nt	0.711	4.4	COc1ccc(C(NC(=O)/C=C\c2ccco2)c2ccc(OC)c(OC)c2)cc1 (stereo unspecified)
-30.8	-0.1	65.5	-7.0	-5.7	2.0	i	0.653	2.4	COc1cc(/C=C/C(=O)O)cc(Br)c1O
4.6	0.0	-2.6	13.5	16.8	-0.4	i	0.67	-2.1	c1ccc(-c2nc(-c3ccncc3)n[nH]2)nc1
-1.0	-7.2	-4.4	nt	nt	nt	nt	0.678	5.4	CCOc1ccccc1NC(=O)c1ccc2nccnc2c1
nt	nt	nt	-3.1	-18.1	-1.3	i	nt	2.4	S=C(CSc1ccccc1)Nc1cccc2ccccc12
-1.1	-3.0	nt	nt	nt	nt	nt	0.665	3.0	O=C(COC(=O)CN1C(=O)C2CC=CCC2C1=O)Nc1cc(C(F)(F)F)ccc1N1CCOCC1 (stereo unspecified)
-0.2	0.6	-2.3	-29.1*	3.8*	1.2*	i	0.727	3.1	CC1CCCC(NC(=O)COC(=O)Cc2c[nH]c3ccccc23)C1C (stereo unspecified)
1.5	-6.5	-19.7	6.3	10.5	0.2	i	0.615	-0.2	COC(=O)c1cc(C(=O)CC(C)C)c[nH]1
6.0	-4.6	-15.4	7.5	4.1	0.5	nt	0.664	0.0	CCOCc1nnc(NC(=O)CSCc2ccccc2)s1
nt	nt	nt	4.4	6.2	2.0	i	nt	-0.3	CCc1nc2ccc(C(=O)N3CCN(C(=O)c4ccco4)CC3)cn2c1N(C)C(=O)Nc1ccccc1OC
nt	nt	nt	-3.9	-4.1	-1.5	i	nt	1.6	CCOC(=O)C1=CC[C@@H](c2ccccc2)N(S(=O)(=O)c2ccc(C)cc2)[C@H]1C
0.7	-15.7	-133.8	3.4	7.5	4.6	i	0.653	-0.4	CCCCN(CCCC)CCCNC(=O)Cn1cc2c(n1)-c1c(oc(C(=O)N3CCCC3)c1C)CC2
nt	-1.6	1.4	nt	nt	nt	nt	nt	0.3	Cc1ccccc1-c1nc2ccccc2c(=O)n1/N=C/c1ccccc1[N+](=O)[O-]
-0.5	0.9	0.9	0.0	7.8	0.2	i	0.658	1.4	O=C(CNC(=O)c1ccccc1)NCC(=O)OCc1ccccc1Cl
1.3	-0.4	nt	nt	nt	nt	nt	0.724	-1.7	O=C(NCc1ccc(F)cc1)c1cccc(S(=O)(=O)N2CCCC2)c1
1.9	-3.1	-34.0	2.5	4.4	1.3	i	0.698	2.1	CCC(C)[C@H](N)c1nnc(SCc2cccc(F)c2)o1 (stereo partly specified)
nt	nt	nt	8.5	7.9	0.4	i	nt	1.5	CCNC(=O)C1CCCN(C(=O)c2ccccc2)CC1 (stereo unspecified)
-27.7	-5.7	-3.1	nt	nt	nt	i	0.723	-2.0	Cc1nc2cc(C(=O)OCC(=O)Nc3cccc(Cl)c3)ccc2n1-c1ccccc1
1.5	0.2	13.9	8.0	12.9	0.5	i	0.699	-1.5	O=C(CN1C(=O)NC2(CCCC2)C1=O)N1CCN(S(=O)(=O)c2ccccc2Br)CC1
-17.9	0.5	0.6	1.8	1.2	-0.2	i	0.618	-1.9	COc1cc(/C=C/C(=O)N2CC(C)OC(C)C2)cc(OC)c1OC (stereo unspecified)
1.9	4.6	-2.5	nt	nt	nt	nt	0.648	1.7	COc1ccc(N(CC(=O)Nc2cccc(OC)c2)S(=O)(=O)c2c(C)nn(C)c2C)cc1
7.1	-1.1	99.0*	nt	nt	nt	nt	0.708	2.6	Cc1cc(-c2ccccc2)nc2[nH]n(-c3ccccc3)c(=O)c12
3.9	0.5	nt	-42.6	-49.9	-11.5	i	0.646	0.4	Cc1nc(-c2ccccn2)nc(N(C)c2ccccc2)c1Cl
4.1	2.8	nt	10.6	6.8	0.9	i	0.713	5.2	CC(C)CCOC(=O)C1C2C=CC3(CN(Cc4cccs4)C(=O)C13)O2 (stereo unspecified)
4.2	0.1	2.2	5.4	6.3	0.7	i	0.692	-4.0	Cc1cc(C)c(S(=O)(=O)c2cccc(Br)c2C)c(=O)[nH]1
1.8	-9.9	6.8	-44.5	-71.4	-10.8	i	0.676	0.7	Cc1ccc(-c2nnc(OCc3cccnc3)c3ccccc23)cc1
-20.3	-8.1	-6.2	nt	nt	nt	nt	0.664	-0.4	COc1ccc2c(c1)Cc1sc(NC(=O)c3cccs3)nc1-2
-2.4	-11.5	-2.2	0.8	0.5	1.0	i	0.654	0.3	Cc1nn(C(C)C(=O)NCCN2CCCCCC2)c(=O)c2nn(-c3ccccc3)c(C)c12 (stereo unspecified)
-1.1	5.0	6.1	nt	nt	nt	nt	0.679	-0.5	NC(=O)c1ccc(-n2nnnc2SCC(=O)Nc2ccccc2-c2ccccc2)cc1
1.4	3.8	2.2	16.1	11.1	3.2	i	0.713	1.3	CCC(C)NC(=O)CN1C(=O)COc2ccc(S(=O)(=O)N3CCOCC3)cc21 (stereo unspecified)
nt	nt	nt	13.8	28.9	2.4	i	nt	5.4	COc1cccc(CNc2nc3cc(-c4cccc(Cl)c4)sc3c(=O)n2C)c1
-191.7	-23.0	nt	nt	nt	nt	nt	0.724	0.9	Cc1ccc(S(=O)(=O)c2nnn3c2nc(N2CCCCC2)c2ccccc23)cc1
-1.9	3.5	nt	-26.2*	-0.4*	-0.9*	i	0.721	1.0	Cc1c(C(=O)Cc2ccccc2)n(C)c2ccccc12
3.1	2.0	97.8*	nt	nt	nt	nt	0.715	2.4	O=S(=O)(Nc1ccc(N2CCOCC2)cc1)c1ccc(Cl)s1
5.7	13.4	-3.5	-6.1	-2.2	4.8	i	0.677	6.3	COc1cc(C)ccc1OCc1cc(C(=O)N2CCN(C)C[C@@H]2c2ccccc2)no1
2.0	14.0	28.7	nt	nt	nt	nt	0.66	0.2	CC(C)=N/N=C1/NC(=O)C(CC(=O)Nc2cc(Cl)ccc2C)S1 (stereo unspecified)
-0.8	19.8	-12.4	-14.2*	6.9*	-0.3*	nt	0.695	-2.2	COc1cccc(OC)c1C(=O)NC(=S)Nc1ccc2oc(-c3ccncc3)nc2c1
0.8	3.1	-25.6	nt	nt	nt	nt	0.735	4.0	COc1ccccc1NC(=O)C(C)N1CCN(C/C=C/c2ccccc2)CC1 (stereo unspecified)
3.7	-3.0	nt	1.9	0.2	-5.8	i	0.637	3.2	O=C(CN1CCN(c2ccc(F)cc2)CC1)Nc1ccccc1Br
-19.5	3.3	-6.8	15.3	18.4	0.6	i	0.696	-0.1	NC(=O)[C@@H]1CCCN1Cc1c(C(=O)N2CCN(C3CCCCC3)CC2)nc2ccccn12
1.0	-0.7	1.3	16.6	13.5	-2.6	i	0.638	-0.8	O=C(O)CC(NC(=O)Cc1ccccc1)c1cc([N+](=O)[O-])ccc1Cl (stereo unspecified)
